MT1-MMP act inh: blockers of MT1-MMP proenzyme processing, primary screen, HT1080 RFP-PRO-GFP cells, GFP/RFP fluorescence; GFP/RFP ratio change, % at 20 µM; GFP/RFP ratio fluorescence, overnight; percent of plate control window, DMSO zero; 0.061% of 360,000 active; AID 651647, 2012;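 active = GFP/RFP ratio change of at least 30% with cell ATP level not reduced by more than half and red fluorescence within 50% of control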; also: strong numbers were not always called active
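Assay system: HT1080 RFP-PRO-GFP cells. Benchmarks: DMSO vehicle wells and RFP-L50D-GFP reporter cell wells. Times: overnight cell settling, then overnight compound exposure, 37 °C, 5% CO2. Compound: 20 µM single dose, 1% DMSO. Read-out basis: GFP/RFP fluorescence ratio.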
CSC inhib: cancer stem cell viability inhibitors, primary screen, luminescence | cancer stem cell-like cells viability | inhibition, % at 7.5 µM | 1.1% of 300,000 active;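 active = mean at 75% or more and at least half the replicates too; inconclusive = mean and replicates disagree; tested in HMLE shEcad cells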;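 also: 0% = median of negative and 100% = median of positive control wells; the first replicate is given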
Rce1 inh: yeast Rce1p protease inhibitors, primary screen, biochemical, fluorescence, cell-free homogeneous; CAAX prenyl protease 2 (Saccharomyces cerevisiae (strain ATCC 204508 / S288c)), Q03530; yeast membranes, quenched prenylated peptide cleavage fluorescence; calls only; 0.27% of 290,000 active; AID 2563, 2010;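 active = fall in fluorescence gain of 50% or more versus controls, with final raw signal at or below 3038400; inconclusive = same 50% fall but final raw signal above 3038400; inactive = fall in fluorescence gain under 50%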;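 also: plate controls were neutral control wells for no effect and wells lacking membranes for full effect; tested at 10 µM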
PABP polyA inh: PABP poly(A) RNA binding inhibitors, primary screen, biochemical, fluorescence polarization, uHTS. Polyadenylate-binding protein 1 (Homo sapiens), P11940. 1% of 290,000 active. AID 2014, 2009. inhibition, % at 35 µM;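 active = 50% or more with normal probe brightness, or confirmed in later tests; inconclusive = above 50% with abnormal brightness, or retests that disagree; inactive = below 50% or failed in later tests; about a fifth of its hits are not listed in these tables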;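 also: calls also rest on retests at 20 µM and on dose response follow-up; controls were probe without protein and protein plus probe with vehicle; some compounds called inactive have numbers as strong as hits; many hits fall short of the cut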
Target sequence (P11940 whole entry, looked up): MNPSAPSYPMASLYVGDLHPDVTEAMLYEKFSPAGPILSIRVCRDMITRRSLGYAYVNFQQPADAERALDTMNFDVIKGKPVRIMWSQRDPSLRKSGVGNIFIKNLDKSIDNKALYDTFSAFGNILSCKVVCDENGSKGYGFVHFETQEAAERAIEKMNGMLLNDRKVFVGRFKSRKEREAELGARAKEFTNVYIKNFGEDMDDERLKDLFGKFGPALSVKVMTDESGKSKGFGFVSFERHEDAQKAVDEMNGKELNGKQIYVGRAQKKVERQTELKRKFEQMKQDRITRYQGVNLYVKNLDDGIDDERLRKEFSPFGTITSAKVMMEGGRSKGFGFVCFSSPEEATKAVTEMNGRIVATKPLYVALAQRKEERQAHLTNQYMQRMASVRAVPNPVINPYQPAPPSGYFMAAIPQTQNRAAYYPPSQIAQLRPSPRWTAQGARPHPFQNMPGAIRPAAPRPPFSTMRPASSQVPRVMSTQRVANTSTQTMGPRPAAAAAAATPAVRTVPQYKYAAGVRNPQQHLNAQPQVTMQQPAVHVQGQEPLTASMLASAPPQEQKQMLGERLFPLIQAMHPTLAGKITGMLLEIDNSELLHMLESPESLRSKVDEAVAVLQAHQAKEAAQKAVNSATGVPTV
Yeast UUG start: modulators of yeast start codon fidelity, primary screen, whole organism, S. cerevisiae, single point, plate reader; S. cerevisiae UUG-firefly luciferase reporter, luminescence/redox ratio; activity score, % at 18.7 µM; 0.13% of 350,000 active; AID 602363, 2012;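 active = replicate mean at a twofold rise or more, about +100% in these data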;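 also: firefly luciferase made from a UUG start codon reports start codon fidelity; reporter light over untreated wells divided by growth signal over untreated wells; some hits fall short of that in this replicate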
eIF4H FP inh: human eIF4H binding inhibitors, primary screen, translation initiation inhibitor project, biochemical, uHTS, fluorescence polarization | eIF4H fluorescence polarization binding assay | inhibition, % at 35 µM | 0.94% of 290,000 active | AID 2012, 2009;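 active = 50% or more with normal probe brightness, or confirmed in later tests; inconclusive = above 50% with abnormal brightness, or retests that disagree; inactive = below 50% or failed in later tests; about a fifth of its hits are not listed in these tables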;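 also: calls also rest on retests at 20 µM and on dose response follow-up; 0% = protein and probe with vehicle and 100% = probe without protein; strong numbers were not always called active; many hits fall short of the cut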
HIV Env fusion: inhibitors of HIV-1 Env-driven cell-cell fusion, primary screen, HeLa-JRFL effector, CEM21 target cells, luciferase. inhibition, % at 12.3 µM. 1.1% of 360,000 active;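 active = mean replicate inhibition score of at least 50 and every replicate individually at or above 50; inconclusive = only one of the two criteria met; inactive = mean below 50 and not all replicates reaching 50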;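 also: 0% = plate neutral controls and 100% = maraviroc near 300 nM; one replicate is shown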
eIF4H FP inh retest: further read-out of eIF4H FP inh, marked with its call; inhibition, %; compound at 20 µM; confirmation average;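 mean of two retest wells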
PABP polyA inh retest: second read-out of PABP polyA inh, no call of its own (marks repeat the call); inhibition, %; compound at 20 µM; confirmation repeats;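 mean of two retest wells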
MT1-MMP act inh RFP: recorded beside MT1-MMP act inh, whose call it bears; RFP signal change, %; measured here: RFP expression control read;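 0 = vehicle wells; hits needed this value within 50% of zero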
The depositor's hits bear a star; i = inactive; ? = inconclusive; . = no result given; & = joins results of further samples. Not all compounds are listed; rates above refer to the full screens.

SMILES	MT1-MMP act inh	MT1-MMP act inh RFP	CSC inhib	Rce1 inh	PABP polyA inh	Yeast UUG start	eIF4H FP inh	HIV Env fusion	others
Cc1cc(C(=O)Nc2ccc(Br)cc2)c2ccccc2n1	-0.2	0.7	-6.6	i	5.5	-12.7	2.1	9.1
O=C(CSc1nccn(-c2ccc(Br)cc2)c1=O)NCc1ccccc1	-7.5	-2.2	8.3	i	.	-16.1	.	-1.3
CC1CCN(CC(O)COc2ccc(OCC(O)CN3CCC(C)CC3)cc2)CC1 (stereo not given)	3.2	-0.7	1.8	i	9.4	-0.5	6.0	-2.9
Cc1nn(CC(=O)O)c(C)c1NC(=O)c1cccs1	4.8	7.4	.	i	6.2	-12.7	-2.9	-10.2
COc1ccc(-n2nc3c(c2NC(=O)COc2ccccc2)CS(=O)C3)cc1 (stereo not given)	-0.8	2.8	-21.4	i	7.2	-16.9	2.3	-9.2
CCOC(=O)C1CCN(C(=O)Cn2nc(C)n3c(cc4cc(F)ccc43)c2=O)CC1	1.1	0.5	-21.3	i	-0.4	.	-8.8	7.8
COc1ccc(-n2c(SCC(=O)O)nc3sc4c(c3c2=O)CCC4)cc1	-3.1	-1.8	-5.9	i	-3.4	-19.0	-9.0	8.2
NNC(=O)Cn1nc2n(c1=O)-c1ccccc1SC2	-2.0	1.8	.	i	-1.5	.	6.2	-19.8
Cc1nn(Cc2cccc(F)c2)c(C)c1NC(=O)c1ccc(COc2ccccc2Cl)cc1	-18.3	-28.4	101.3*	i	9.4	0.0	-12.3	38.2
COc1ccc(CCNC(=O)COC(=O)c2cccn2C)cc1	0.2	0.6	.	.	.	-8.8	.	78.5*
CN(Cc1ccccc1)C(=O)c1nc2ccccn2c1CNCCCOc1cccnc1	-5.5	0.3	-30.2	i	3.4	-15.3	-5.9	2.8
CCC(=O)c1cn(CC(=O)Nc2cc(C)ccc2C)c2ccccc12	16.2	-4.9	-16.0	i	-2.1	-10.8	-9.0	-8.4
O=C(CSC(=S)N1CCCC1)NCC(=O)Nc1ccc(F)c(F)c1	3.7	1.7	7.3	i	-5.4	-10.0	96.1	.	eIF4H FP inh retest=-13.9;PABP polyA inh retest=19.2
O=C(NNc1c(F)c(F)cc(F)c1F)c1cc2ccccc2oc1=O	2.4	0.3	.	i	27.3	.	38.1	-1.8
Cc1oc(-c2cccc(Cl)c2)nc1CS(=O)(=O)CC(=O)NCCCN1CCOCC1	-5.6	1.9	-6.5	i	-2.6	0.7	-7.9	17.1
CSc1nc(S(=O)(=O)c2ccc(C)cc2)c(N2CCOCC2)s1	2.0	2.9	.	.	.	9.9	.	-1.9
O=C(Nc1ccccc1)Nc1ccc(Br)c(Cl)c1	-10.6	-24.4	39.9	i	-1.7	-16.3	-1.1	?
CNC(=S)N1N=C(c2ccccc2)CC1c1ccc(Br)cc1 (stereo not given)	-4.5	-6.5	-1.2	i	0.3	-17.1	-7.4	1.8
CSc1ccc(Cl)c(C(=O)N(C)CC(=O)Nc2ccc(N3CCOCC3)cc2)c1	-0.4	-2.9	0.2	i	.	.	.	-0.5
Cc1cc(C)c2ccc(C(=O)O)nc2c1O	4.0	10.5	-8.6	i	10.6	-16.6	8.3	-1.7
CC(=O)NC1CC2CCCC(C1)N2S(=O)(=O)c1cccc(F)c1 (stereo not given)	-1.2	3.5	.	i	-2.3	-5.5	2.6	-64.1
CCN(CC)C(C)C(=O)NCC1(c2ccccc2)CCOCC1 (stereo not given)	2.7	1.3	-4.3	i	-4.4	-11.5	9.7	-2.2
NCCCC[C@@H](C(=O)N1CCNCC1)n1cc([C@@H](N)CC(N)=O)nn1	-0.6	1.8	2.1	.	.	-16.7	.	-15.0
CC(=O)NC1C(O)OC(CO)C(O)C1O (stereo not given)	1.5	0.2	-3.0	i	.	-2.3	.	-14.3
O=C(Nc1ccc(-c2cn3ccccc3n2)cc1)c1ccc(Cl)cc1	7.3	8.1	1.9	i	-20.6	-10.9	5.2	.
Cc1cccc(N(CC(=O)Nc2ccccc2F)S(C)(=O)=O)c1	1.8	-0.4	2.6	i	10.7	-21.4	-10.0	-20.2
NC(=O)C1(N2CCCCC2)CCN(CC(=O)Nc2ccc(Oc3ccccc3)cc2)CC1	1.6	-6.9	-20.5	i	-10.3	-10.6	-7.4	6.5
CS(=O)(=O)N1CCN(c2ccccc2NC(=O)c2ccco2)CC1	2.9	2.2	.	i	4.9	-9.8	6.2	.
COC(=O)c1ccc(CNS(=O)(=O)c2ccc3ccccc3c2)cc1	0.6	1.7	-2.6	.	-1.9	3.5	5.5	3.9
CC(=O)c1c(N2CCOCC2)nc(=S)n(-c2ccccc2)c1C	2.4	4.6	12.8	i	2.1	10.3	-1.7	.

Brought forward from above: 2 compounds; new compounds follow.
SMILES	MT1-MMP act inh	MT1-MMP act inh RFP	CSC inhib	Rce1 inh	PABP polyA inh	Yeast UUG start	eIF4H FP inh	HIV Env fusion	others
COC(=O)c1ccc(CNS(=O)(=O)c2ccc3ccccc3c2)cc1	0.6	1.7	-2.6	.	-1.9	3.5	5.5	3.9
CC(=O)c1c(N2CCOCC2)nc(=S)n(-c2ccccc2)c1C	2.4	4.6	12.8	i	2.1	10.3	-1.7	.
COC(=O)CC1c2cc(OC)c(OC)cc2CC(=O)c2cc(OC)c(OC)cc21 (stereo not given)	2.6	7.2	-8.3	i	-0.8	.	11.4	-8.4
NC(=O)NCCN1CCN(c2ncc(C(F)(F)F)cc2Cl)CC1	-2.1	-3.3	1.6	i	?	.	9.4	-4.5
CN1C(=S)N(c2ccccc2)C(=O)/C1=C/c1cccs1	2.0	-4.3	-7.2	i	0.4	.	-9.1	-112.5
CN1CCN(C(=O)CCc2ncc(C(F)(F)F)cc2Cl)CC1	-1.2	1.9	-7.2	i	-9.8	11.2	1.7	20.4
CC(=O)Nc1ccc(Oc2cc(NC(C)=O)cc([N+](=O)[O-])c2)cc1	-4.0	-1.7	-22.3	i	0.8	-15.4	2.0	2.1
O=C(Cn1cnc2c(nnn2-c2cccc(Cl)c2)c1=O)N1CCCC1	-2.3	3.5	-9.4	i	6.2	.	-3.4	-41.7
CC(c1cccs1)N(Cc1ccco1)C(=S)Nc1ccccc1Cl (stereo not given)	1.1	0.8	6.8	i	-4.3	-24.3	-3.6	-0.7
CCc1nnc(NC(=O)CSc2nnc(-c3ccc(O)cc3)n2C)s1	0.9	2.3	-7.4	i	-4.6	.	-5.0	-1.9
CCOC(=O)N/N=C(/C)c1cccc(-n2cnnn2)c1	4.2	0.9	13.3	i	12.0	-10.4	2.9	-8.2
C/C(=N\NC(=O)c1ccc(N2CCCC2=O)cc1)c1ccc(O)cc1O	8.8	-2.1	54.5	i	4.3	-20.9	7.2	33.5
Cc1cccc2cc(C#N)c(SCC#N)nc12	-8.7	1.5	.	i	5.1	-30.8	11.4	46.5
Cc1ccc(OCC(=O)Nc2ccc(N3CCN(C(=O)c4ccc(C)cc4)CC3)cc2)cc1	15.9	-2.5	0.8	i	3.7	-13.8	-10.2	18.5
COc1ccc(OC)c(S(=O)(=O)N2CCCC(C(=O)NCCN3CCOCC3)C2)c1 (stereo not given)	-2.7	-1.2	-11.9	i	8.2	-10.5	-1.8	-0.7
CCn1nc(C)c(C2C(C#N)=C(N)OC3=C2C(=O)CC(C)(C)C3)c1C (stereo not given)	-0.4	6.4	-6.6	i	-4.1	-11.0	3.2	.
CCNS(=O)(=O)c1ccc2c(c1)n(C)c(=O)n2C	-0.9	0.5	0.2	i	5.6	-11.2	-13.1	-40.4
O=C(c1ccc(Cl)cc1)N(Cc1ccccc1F)N1C(=O)CCCC1=O	2.7	0.7	-7.9	i	2.2	-11.3	-8.8	5.1
C[C@@H]1CN([C@@H](C)CO)C(=O)CCCn2nncc2CO[C@@H]1CN(C)C(=O)CCC(F)(F)F	-1.1	1.8	.	.	.	-13.4&-2.6&-3.9	.	-2.4
C=CCNC(=O)/C(=C\c1ccco1)NC(=O)c1ccco1	-0.3	6.5	-4.6	i	4.6	-13.4	-1.2	-18.0
CN(CC(=O)Nc1ccccc1Cl)CC(=O)N(C)c1c(N)n(Cc2ccccc2)c(=O)[nH]c1=O	-3.8	-0.1	0.2	.	.	-9.9	.	-0.4
CCOc1ccc(CN(CCC#N)C(=S)NC(=O)c2ccccc2)cc1	8.6	-1.2	8.9	i	-2.9	.	0.8	-2.6
Cc1ccc(Nc2cc(C)nc3nnnn23)cc1	-2.2	-0.6	-4.4	i	-6.5	-20.6	-2.6	.
CCC(C)[C@H](NC(=O)[C@H](Cc1ccccc1)n1c(=O)[nH]c2ccccc2c1=O)C(=O)N1CCC[C@@H]1C(=O)O (stereo not given in full)	-2.9	1.7	3.9	i	7.5	19.3	-0.5	.
Cc1ccc(O)c(C(=O)c2cc(C(=O)NCCc3ccccc3)c(=O)n(CCc3ccccc3)c2)c1	-13.8	-4.3	4.4	i	2.9	.	-10.0	-8.8
Cc1ncc(CO)c(/C=N/NC(=O)c2ccccc2Br)c1O	0.2	3.2	7.0	i	-11.0	.	-7.2	-11.8
Cc1ccc(C(=O)Nc2ccc3c(c2)OCCO3)c(C)c1	-1.0	2.4	-2.9	i	5.9	-75.7	3.6	22.9
OC[C@H](O)[C@H](O)[C@@H](O)[C@@H](O)[C@@H]1SC(c2ccccc2)=NN1c1ccccc1	-1.3	3.5	52.4	i	-0.7	-3.1	-9.7	-4.3
CCCOc1ccccc1NS(=O)(=O)c1ccc2[nH]c(=O)[nH]c2c1	1.1	0.5	-5.9	i	7.8	-6.0	7.4	-2.4
CCOc1ccc(Cl)cc1S(=O)(=O)N1CCC(C(=O)NCc2cccnc2)CC1	0.1	-1.9	-15.1	i	-2.4	-3.3	-2.3	-1.7
Cc1cc(C)cc(NC(=O)CCC(=O)Nc2nnc(C(F)(F)F)s2)c1	3.5	0.8	-11.0	i	5.8	-17.9	4.6	5.6
FC(F)(F)c1cc(-c2ccco2)nc(-n2nnc3ccccc32)n1	-10.3	-6.7	.	i	9.9	-8.5	-5.2	-30.7
CN(C)CCN(Cc1ccccc1)C(=O)[C@H](Cc1ccccc1)N1C(=O)c2ccccc2C1=O	-1.6	2.6	.	i	21.1	11.1	5.7	1.7
CC1=NN(c2nc(-c3ccc(C)cc3)cs2)C(=O)C1N=Nc1cccc(O)c1 (stereo not given)	10.4	-2.8	-15.8	i	3.2	-14.9	27.5	11.3
CC1CCN(CC(=O)Nc2nn(-c3ccccc3)nc2C(N)=O)CC1	4.9	2.4	-6.9	.	-2.2	.	2.6	-29.9
O=C(COC(=O)c1cc(S(=O)(=O)N2CCOCC2)ccc1O)NCCc1ccccc1	-0.9	4.7	0.8	i	4.7	-3.3	3.7	25.1
CN1CCN(c2ccccc2NC(=O)c2ccc(-c3ccccc3)cc2)CC1	-0.4	-6.8	25.2	i	-7.4	6.6	-3.4	.
CCC(C)N1C(=S)SC(C)(C)C1N(O)C(=O)NC1CCCCC1 (stereo not given)	-5.3	-4.6	11.8	i	-9.2	.	0.6	16.9

From PubChem
